Rango dissoc inh: qHTS Assay for Inhibitors of RanGTP induced Rango (Ran-regulated importin-beta cargo) - Importin beta complex dissociation | Snurportin-1 (Homo sapiens) + GTP-binding nuclear protein Ran (Homo sapiens) + Importin … | Biochemical FRET Rango-importin beta, RanGTP-induced dissociation | Potency, µM (top dose mostly 46.1 µM), inactives show at the highest dose activity change, negative = inhibition | actives 0.071% (n = 340,000); active means falling FRET ratio curve, often poorly fitted, with flat reads before Ran was added; inconclusive means other falling curves, or compound fluorescence or quenching; inactive means flat or rising ratio curve;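 also: potency is read from the fitted curve at half-maximal effect; % of control where 0% means no effect; nearly all actives have a fitted effect of over 45% in size; -100% = wells without RanGTP and RCC1; the record marks most hits as doubtful in a second field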
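Rango (0.1 uM)–importin beta (0.25 uM) complex; RanGTP-RCC1 trigger; 45 min RT; CFP/YFP FRET read.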
Rango-impB inh: qHTS Assay for Inhibitors of Rango (Ran-regulated importin-beta cargo) - Importin beta complex formation. Importin subunit beta-1 (Homo sapiens), Q14974. Rango CFP/YFP FRET sensor + importin beta, 45 min. Potency, µM (top dose mostly 92.2 µM), without a hit: at the top dose inhibition of complex formation. actives 0.031% (n = 340,000); active = rising FRET ratio curve, often small or poorly fitted; inconclusive = mostly compound fluorescence or quenching in the first reads; inactive = flat curves in all reads;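 also: potency is read from the fitted curve at half-maximal effect; 0% = DMSO wells and 100% = buffer wells lacking importin beta; nearly all actives have a fitted effect of over 15% in size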
Target sequence (Q14974 whole entry, looked up): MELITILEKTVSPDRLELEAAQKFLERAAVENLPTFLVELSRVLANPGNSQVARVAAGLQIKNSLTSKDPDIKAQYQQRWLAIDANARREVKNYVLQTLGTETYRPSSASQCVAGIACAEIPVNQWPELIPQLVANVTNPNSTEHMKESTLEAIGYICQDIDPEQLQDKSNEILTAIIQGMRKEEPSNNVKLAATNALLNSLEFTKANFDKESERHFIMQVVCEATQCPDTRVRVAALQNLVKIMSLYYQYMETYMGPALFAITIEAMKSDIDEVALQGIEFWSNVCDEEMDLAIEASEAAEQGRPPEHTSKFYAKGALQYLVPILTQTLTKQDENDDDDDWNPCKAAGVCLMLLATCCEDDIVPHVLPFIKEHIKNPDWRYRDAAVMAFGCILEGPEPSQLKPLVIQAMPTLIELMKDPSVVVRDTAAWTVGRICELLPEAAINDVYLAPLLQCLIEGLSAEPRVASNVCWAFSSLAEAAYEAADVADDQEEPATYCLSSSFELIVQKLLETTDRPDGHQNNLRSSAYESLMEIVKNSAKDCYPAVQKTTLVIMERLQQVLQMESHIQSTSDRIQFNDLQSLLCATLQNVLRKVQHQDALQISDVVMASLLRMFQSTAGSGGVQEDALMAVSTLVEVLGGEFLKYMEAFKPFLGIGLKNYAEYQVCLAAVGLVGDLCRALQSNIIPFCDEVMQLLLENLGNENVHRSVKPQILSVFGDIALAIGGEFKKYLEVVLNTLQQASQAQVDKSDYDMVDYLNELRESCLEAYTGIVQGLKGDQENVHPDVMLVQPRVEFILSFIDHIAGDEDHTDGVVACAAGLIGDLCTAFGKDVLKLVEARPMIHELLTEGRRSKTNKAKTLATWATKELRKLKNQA
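Inhibition scored from the CFP 486 nm/YFP 530 nm FRET ratio 45 min after adding 0.125 microM importin beta to 50 nM Rango biosensor preincubated 5 min with compound (room temperature, PBS with DTT, Tween-20, BSA). No-importin wells as positive control.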
GLA inh pH 4.5: qHTS Assay for Inhibitors of Human alpha-Galactosidase at pH 4.5. activity change, negative = inhibition, % at 105 µM. AID 1467, 2008. purified enzyme, 4-MU-alpha-Gal fluorescence, pH 4.5. 230,000 tested, under 10 active; inconclusive = small, poorly fitted or top-dose-only inhibition, or a rising curve; inactive = flat fitted curve, though single readings scatter; no compound was filed as active;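 also: 0% = full activity with enzyme and -100% = basal without enzyme; dose as in the result columns while the protocol names 77 µM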
miR-21 FLuc: qHTS Assay for Modulators of miRNAs and/orActivators of miR-21; HeLa miR-21 FLuc reporter, luciferase, 48 h; Potency, µM (series often up to 38.3 µM), for inactives: top-dose reporter change, positive = more light; 340,000 tested, under 10 active; active = well fitted rising curve with a large enough effect; inconclusive = small, poorly fitted or top-dose-only effect; inactive = no such curve, though single readings can be large or run the other way;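 also: % of control where 0% means no effect; miR-21 action dims this reporter so a rising signal means less miR-21 action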
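Luminescence from a firefly luciferase reporter carrying a miR-21 binding site downstream, stably expressed under a CMV promoter in HeLa cells that make miR-21 endogenously, reports miRNA modulation after 48 h compound exposure up to approximately 40uM final.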
* hit, by the source's call; ? = inconclusive; / = not tested or not shown; & = joins results of further samples. Not all compounds are listed; count on the stated rates, not on these rows.

SMILES | Rango dissoc inh | Rango-impB inh | GLA inh pH 4.5 | miR-21 FLuc
COC(=O)c1ccc(NC(C)=O)o1 | -12% | 0.1% | 6 | -2%
O=C(CSc1nncs1)Nc1cc(-c2ccccc2)nn1-c1ccccc1 | 0% | -2.8% | 8 | -16%
CCOC(=O)N1CCN(C(=O)c2cccc(S(=O)(=O)Nc3ccc(Br)cc3)c2)CC1 | 0% | -1.8% | / | /
CS(=O)(=O)Nc1ccc(C2=NN(C(=O)C3CCCCC3)C(c3cccs3)C2)cc1 (configuration not stated) | 16% | ? | 22 | 0%
CC(C)Cc1nc2sc3c(=O)n(N)cnc3c2c2c1COC(C)(C)C2 | 22% | 5.8% | 6 | -7%
CSCC[C@H](NC(=O)[C@H]1CC[C@H](CNC(=O)[C@@H](N)Cc2ccccc2)CC1)C(=O)O | 18% | -2.0% | / | -5%
CN(C)C1NC(=O)c2cc(-c3ccccc3)sc2N1 (configuration not stated) | 25% | 2.7% | -4 | -26%
O=C(Nc1ccc(Cl)c(S(=O)(=O)N2CCOCC2)c1)c1ccccn1 | -14% | 0.3% | -10 | 0%
O=C(NCc1ccccc1F)C1CCCN1S(=O)(=O)c1ccc(F)cc1 (configuration not stated) | -1% | 3.3% | / | -1%
COc1ccc(-c2c(C#Cc3ccccc3)c3ccccc3n2C)cc1 | -14% | -0.5% | / | -12%
Cc1ccc(OCCNC(=O)CN2C(=O)NC3(CCCC3)C2=O)cc1 | 19% | -5.7% | / | /
CC[C@H](C)/C=C(C)/C=C/C(=O)Cc1cc(O)c(C)c(O)c1C=O | ? | ? | -1 | 3%
CC(=O)Nc1ccc(NC(=O)CSc2ccc(-c3cccnc3)nn2)cc1 | -1% | -0.8% | / | 6%
O=C(CSC1=NS(=O)(=O)c2cc(F)ccc2N1)NCCc1ccccc1 | 8% | 1.3% | / | /
CCOC(=O)C(C)Sc1ncc(OC)c(=O)[nH]1 (configuration not stated) | -11% | 1.5% | 7 | 2%
Cc1ccc(S(=O)(=O)N(Cc2cccc(C(F)(F)F)c2)C(=O)N2CCN(C)CC2)cc1 | 14% | 0.0% | / | /
COc1ccc(CNC(=O)[C@H](C)NC(=O)C2CCN(S(=O)(=O)c3ccc(F)cc3)CC2)cc1 | 49% | 2.5% | / | -1%
O=C(Nc1cccc(F)c1)Nc1ccc2c(c1)CCC2 | -2% | 0.1% | / | -67%
COc1ccccc1CNn1c(-c2cccc(C)c2)nc2ccccc2c1=O | 18% | 1.0% | -5 | 25%
CCOC(=O)c1sc2nc(-c3ccco3)c3c(c2c1N)CC(C)(C)OC3 | ? | ? | -5 | 11%
NC(=O)c1c(-c2ccc(Cl)cc2Cl)csc1NC(=O)Cc1ccccc1 | -12% | ? | -14 | -3%
CCCCC(CC)C(=O)N1CCN(C(=O)c2ccco2)CC1 (configuration not stated) | -1% | 6.0% | 5 | 0%
COc1cccc(C2=NN(S(C)(=O)=O)C(c3cccs3)C2)c1 (configuration not stated) | -5% | ? | -2 | -44%
CC(C)c1ccc(O)c(NC(=S)NC(=O)CCc2ccccc2)c1 | 1% | 0.5% | 0 | -13%
Cc1nc(N2CCCC2)c2nnn(Cc3ccccc3Cl)c2n1 | -7% | ? | -9 | -1%

Complete entries, looked up by structure. Screens in order: Rango dissoc inh | Rango-impB inh | GLA inh pH 4.5 | miR-21 FLuc
Profile of `COC(=O)c1ccc(NC(C)=O)o1` → -12% | 0.1% | 6 | -2%
Profile of `CN(C)C1NC(=O)c2cc(-c3ccccc3)sc2N1` (configuration not stated) → 25% | 2.7% | -4 | -26%

(listing goes on)
SMILES | Rango dissoc inh | Rango-impB inh | GLA inh pH 4.5 | miR-21 FLuc
COC(=O)c1cn(C(=O)c2ccc(Br)o2)c2ccccc12 | 11% | 3.7% | -1 | -9%
CCOc1cc(C(=O)NCCOC)cc(OCC)c1OCC | -4% | -2.5% | -1 | -2%
S=C1CC2CCCC(C2)N1 (configuration not stated) | -11% | 1.9% | / | /
Cc1cccc(-n2c(SCC(=O)NCC3CCCO3)nc3ccccc3c2=O)c1C (configuration not stated) | ? | -2.5% | / | /
CC(C)(C)NC(=O)COc1ccc(CNCc2cccs2)cc1 | -11% | -2.9% | 3 | -1%
O=C(c1ccc(Cl)s1)N1CCOCC1 | 4% | 4.8% | 2 | -7%
CCOC(=O)c1ccc(NC(=O)C(CC)(CC)C(=O)OCC)cc1 | -1% | -3.4% | -12 | -4%
COc1ccccc1NS(=O)(=O)c1ccc(C(=O)NCCCN2CCOCC2)cc1 | -8% | -0.7% | / | /
Cc1cc(C(F)(F)F)nn1CC(=O)N(C)c1ccccc1 | -3% | -1.1% | 2 | -1%
COc1ccc(-c2csc(NC(=O)C3=COCCO3)n2)cc1OC | 1% | 2.6% | / | /
COc1cc(/C=N/NC(=O)c2cccnc2)ccc1OCC(=O)Nc1ccc(C)cc1 | 7% | 3.4% | ? | -14%
CN(Cc1ccc(OC(F)F)cc1)C(=O)c1cccc(S(=O)(=O)N2CCN(Cc3ccccc3)CC2)c1 | -2% | 3.5% | / | /
O=C(NCCc1ccc(Cl)cc1)C1=CC=CN2CCS(=O)(=O)N=C12 | -3% | 0.2% | / | /
Cc1nnc(NC(=O)C2CCN(S(=O)(=O)c3ccc(Cl)cc3)CC2)s1 | -9% | -2.1% | 0 | 1%
CCc1nc(Sc2nnnn2-c2ccccc2)c2c3c(sc2n1)CCCC3 | 1% | -1.7% | 2 | -6%
O=C(c1cnn(C(=O)c2ccco2)c1)c1ccccc1O | 25% | 2.2% | / | /
Cc1csc(SCCn2c(N3CCN(c4ccccc4)CC3)nc3c2c(=O)[nH]c(=O)n3C)n1 | 14% | 0.1% | -27 | 1%
O=C(CSCc1ccccc1Br)Nc1ccccc1 | -5% | -0.4% | / | -45%
CC(=NNC(=O)COc1cccc(C)c1)c1cccnc1 | -6% | -2.2% | / | /
O=C(N/C(=C/c1ccco1)C(=O)N1CCOCC1)c1cccs1 | -3% | 1.8% | 1 | -2%
CC(=O)c1ccc(N2CCN(C(=O)/C=C/c3ccc(S(=O)(=O)N4CCOCC4)cc3)CC2)cc1 | -5% | -2.6% | 7 | -4%
CCCc1cc(=O)[nH]c2nnc(SCC(=O)Nc3nnc(CC)s3)n12 | 8% | 4.5% | / | /
N#CCc1ccc(NC(=O)c2ccc(CN3CCc4ccccc4C3)cc2)cc1 | 0% | 0.7% | / | 13%
Cc1cc(C)n(CC(O)COCc2ccccc2)n1 (configuration not stated) | -8% | -0.3% | -29 | -9%
Cc1ccc(OCC(=O)Oc2cccc(C)c2)cc1 | -20% | 1.0% | / | /
(further entries)
SMILES | Rango dissoc inh | Rango-impB inh | GLA inh pH 4.5 | miR-21 FLuc
Oc1ccccc1N=Cc1sc2ccccc2c1Cl | 5% | 2.2% | -1 | -3%
O=C(Oc1ccc(N(Cc2cccs2)C2=NS(=O)(=O)c3ccccc32)cc1)c1ccccc1F | -1% | 3.8% | -2 | 0%
C[C@H](NC(=O)C1CC(=O)N(c2ccc3c(c2)OCO3)C1)C(=O)NC1CCCCC1 (some centres not stated) | ? | -4.2% | / | -1%
Cn1c(NCCCO)nc2ccccc21 | -5% | -1.9% | -3 | -3%
c1ccc(N2CCN(c3ncnc4sc5c(c34)CCC5)CC2)cc1 | -8% | -0.2% | -9 | -5%
NC(=O)CCC(=O)N1CCCC(C(=O)c2ccc3c4c(cccc24)CC3)C1 (configuration not stated) | -8% | 0.7% | -1 | -8%
Oc1c(C(c2ccco2)N2CCC3(CC2)OCCO3)sc2ncnn12 (configuration not stated) | -13% | 0.0% | 3 | -1%
C/C(=N\NC(=O)c1sccc1C)c1cccnc1 | -1% | 0.9% | / | -61%
Cc1nc(CCN2C(=O)c3ccccc3C2=O)cs1 | -8% | -4.2% | -1 | -9%
Cc1ccccc1-n1cc[nH]c1=S | -11% | ? | 7 | 1%
Cc1ccc(NC(=S)N(CCCN2CCOCC2)Cc2ccccn2)cc1 | 0% | 4.1% | 4 | -3%
COc1ccc(/C=c2/sc3n(c2=O)C(c2ccccc2OC)C2=C(N=3)c3ccccc3CC2)cc1O (configuration not stated) | ? | ? | -8 | 21%
CCn1c(=O)cc(SCC(=O)NCc2ccc(C)cc2)c2ccccc21 | 3% | -1.6% | 2 | 9%&8%
O=C(Cc1ccccc1)Nc1ccc2c(c1)C(=O)N(CC1CCCO1)C2=O (configuration not stated) | -20% | -0.8% | 0 | -1%
CN1CCN(S(=O)(=O)c2ccc(NC(=S)NC(=O)C3CCCCC3)cc2)CC1 | -15% | 0.3% | 3 | -9%
CC1CN(C(=O)CN2C(=O)NC(C)(c3ccccc3)C2=O)CC(C)O1 (configuration not stated) | 14% | -0.1% | 7 | -3%
COc1ccccc1NS(=O)(=O)c1cc(C(=O)N2CCCC2)ccc1F | 5% | 3.9% | / | /
COCCNS(=O)(=O)c1cc2[nH]c3c(c2cc1C)C(=O)CC(C)(C)C3 | -6% | -0.3% | / | -3%
COc1cccc(NS(=O)(=O)c2ccc(S(=O)(=O)N3CCCC3)cc2)c1 | -2% | -0.5% | / | /
Cc1ccc(OCCOC(=O)c2cccc(S(=O)(=O)N3CC(C)OC(C)C3)c2)cc1 (configuration not stated) | -11% | -0.2% | / | /
CCC(=O)N1CCN(c2ccccc2NC(=O)COc2cccc(C)c2)CC1 | 5% | 0.9% | -14 | 4%
COc1ccc(S(=O)(=O)Nc2cccc3c2O[C@H](CN(C)C(=O)Nc2ccc4c(c2)OCO4)[C@@H](C)CN([C@H](C)CO)C3=O)cc1 | 21% | -0.1% | / | /
Cc1ccccc1CC(=O)N1CCCC1 | 3% | 1.1% | / | -4%
Cc1ccnc(NC(=O)c2ccc(Cl)c(S(=O)(=O)N3CCCC3)c2)c1 | -3% | 3.4% | / | /
COc1ccc(NC(=O)c2cnc(SC)nc2C)c(OC)c1 | -1% | -1.6% | / | -2%

Among those listed so far, these have a CF3 group.
SMILES | Rango dissoc inh | Rango-impB inh | GLA inh pH 4.5 | miR-21 FLuc
Cc1ccc(S(=O)(=O)N(Cc2cccc(C(F)(F)F)c2)C(=O)N2CCN(C)CC2)cc1 | 14% | 0.0% | / | /
Cc1cc(C(F)(F)F)nn1CC(=O)N(C)c1ccccc1 | -3% | -1.1% | 2 | -1%

Remaining list, next part.
SMILES | Rango dissoc inh | Rango-impB inh | GLA inh pH 4.5 | miR-21 FLuc
CCCC(=O)Oc1c(S(=O)(=O)c2ccc(C)cc2)c(C)nn1C(C)(C)C | 4% | -3.1% | -8 | 28%
O=C(Nc1nc(-c2ccc3ccccc3c2)cs1)C1CCN(S(=O)(=O)c2cccs2)CC1 | -5% | ? | -19 | -2%
Cc1cccc(OCCCC(=O)NCCc2ccccc2)c1 | 17% | 5.1% | -13 | -11%
CC(C)(C)NC(=O)COC(=O)c1ccc(O)cc1 | -1% | 0.2% | -2 | -13%
O=C(O)c1[nH]c2ccccc2c1C(c1c(F)cccc1Cl)c1c(C(=O)O)[nH]c2ccccc12 | 6% | 2.0% | / | -6%
CCN(CC)c1cc(C(F)(F)F)nc(-c2ccccn2)n1 | ? | 1.2% | 3 | 2%
NC(=O)CC(NC(=O)Cc1ccc(Br)cc1)c1ccc(NCc2ccccn2)c([N+](=O)[O-])c1 (configuration not stated) | -12% | -0.9% | 1 | -1%
Cc1ccc(-n2ncc3c(NNC(=O)c4ccco4)ncnc32)cc1Cl | -11% | -0.6% | / | -25%
CCc1ccc(CNn2cnnc2SCC(=O)NC(C)(C)C)cc1 | 10% | -0.8% | 1 | -12%
Clc1ccc(-c2ccc(C=Nc3ccc(N4CCOCC4)cc3)o2)c(Cl)c1 | -3% | -1.9% | 1 | -3%
CCc1cc(C(=O)Nc2cc(S(=O)(=O)N(CC)CC)ccc2N2CCOCC2)sc1C | -8% | ? | / | /
Cc1cc(C)c2nc(NC(=O)c3cccc(S(=O)(=O)N4CCc5ccccc54)c3)sc2c1 | 1% | -3.9% | -2 | 0%
Cn1c(C2CCCCC2)nc2c1c(=O)[nH]c(=O)n2Cc1ccccc1 | -6% | 5.4% | -2 | -14%
CSCC[C@H](NC(=O)c1cccc(S(=O)(=O)N2CCN(C)CC2)c1)c1nc2ccccc2[nH]1 | 16% | 0.1% | / | /

Bioassay records deposited in PubChem by National Center for Advancing Translational Sciences (NCATS).
